Bioassay records (PubChem)
GLA inh pH 4.5 = alpha-galactosidase A (human) inhibition, pH 4.5; P06280; purified enzyme, 4-MU-alpha-Gal fluorescence, pH 4.5; activity change, negative = inhibition, % at 105 µM; 230,000 tested, under 10 active; AID 1467; inconclusive = small, poorly fitted or top-dose-only inhibition, or a rising curve; inactive = flat fitted curve, though single readings scatter; no compound was filed as active;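 further: 0% = full activity with enzyme and -100% = basal without enzyme; dose as in the result columns while the protocol names 77 µM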
Target sequence (P06280 whole entry, looked up): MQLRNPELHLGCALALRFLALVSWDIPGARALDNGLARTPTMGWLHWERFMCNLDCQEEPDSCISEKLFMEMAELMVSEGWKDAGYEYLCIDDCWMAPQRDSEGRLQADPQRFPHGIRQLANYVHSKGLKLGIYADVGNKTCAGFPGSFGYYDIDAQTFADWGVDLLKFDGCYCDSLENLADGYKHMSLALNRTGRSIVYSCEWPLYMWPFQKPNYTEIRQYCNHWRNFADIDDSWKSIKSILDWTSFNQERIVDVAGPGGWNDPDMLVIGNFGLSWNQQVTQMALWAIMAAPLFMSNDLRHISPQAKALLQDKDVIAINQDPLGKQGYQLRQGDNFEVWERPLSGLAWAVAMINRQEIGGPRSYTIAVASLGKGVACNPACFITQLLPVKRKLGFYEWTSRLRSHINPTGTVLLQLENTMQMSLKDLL
Rango release inh = inhibitors of RanGTP-induced Rango-importin beta complex dissociation; Biochemical FRET Rango-importin beta, RanGTP-induced dissociation; Potency, µM (top dose mostly 46.1 µM), inactives show at the highest dose activity change, negative = inhibition; O95149+P62826; actives 0.071% (n = 340,000); active means falling FRET ratio curve, often poorly fitted, with flat reads before Ran was added; inconclusive means other falling curves, or compound fluorescence or quenching; inactive means flat or rising ratio curve;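 further: potency means the concentration at half of the fitted maximal effect; % of control where 0% means no effect; nearly all actives have a fitted effect of over 45% in size; -100% = wells without RanGTP and RCC1; the record marks most hits as doubtful in a second field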
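Recombinant Rango FRET biosensor (EYFP–snurportin 1 IBB–cerulean CFP10) at 0.1 uM premixed with 0.25 uM importin beta in PBS, 1 mM DTT, 0.02% Tween-20, 0.1% BSA. Compound added 5 min; RanGTP-RCC1 (0.6 uM Ran, 2 mM GTP, 0.2 uM RCC1) then triggers release, read at 45 min.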
miR-21 reporter = raises the signal of a miR-21 reporter; HeLa miR-21 FLuc reporter, luciferase, 48 h; Potency, µM (highest dose often 38.3 µM), for the others: top-dose reporter change, positive = more light; 340,000 tested, under 10 active; AID 2288; active = well fitted rising curve with a large enough effect; inconclusive = small, poorly fitted or top-dose-only effect; inactive = no such curve, though single readings can be large or run the other way;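 further: % of control where 0% means no effect; miR-21 action dims this reporter so a rising signal means less miR-21 action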
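HeLa cells endogenously expressing miR-21, stably carrying CMV-driven firefly luciferase with a downstream miR-21 binding site, 2000 cells/well. Titrations up to approximately 40 uM, 48 hours; luciferase luminescence read.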
Rango-impB inh = Rango-importin beta binding inhibition. Q14974. Rango CFP/YFP FRET sensor + importin beta, 45 min. Potency, µM (series often up to 92.2 µM), for inactives: at the top dose inhibition of complex formation. actives 0.031% (n = 340,000). AID 540263; active = rising FRET ratio curve, often small or poorly fitted; inconclusive = mostly compound fluorescence or quenching in the first reads; inactive = flat curves in all reads;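 further: potency means the concentration at half of the fitted maximal effect; 0% = DMSO wells and 100% = buffer wells lacking importin beta; nearly all actives have a fitted effect of over 15% in size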
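FRET biosensor (snurportin 1 IBB flanked by EYFP and cerulean), 50 nM, with compound 5 min, then 0.125 microM importin beta in PBS, 1 mM DTT, 0.02% Tween-20, 0.1% BSA. CFP/YFP ratio read after 45 min at room temperature; pre-read flags interference.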
* = called active by the depositor; ? = inconclusive; . = no result given; & = joins results of further samples.

GLA inh pH 4.5	Rango release inh	miR-21 reporter	Rango-impB inh	Molecule
-6	-15%	-4%	2.8%	COc1ccc(S(=O)(=O)N2CCCC(C(=O)NCCC3=CCCCC3)C2)cc1 (centres undefined)
5	0%	-2%	-4.0%	Cc1c(NC(=O)C(C)OC(=O)c2sc3ccccc3c2Cl)c(=O)n(-c2ccccc2)n1C (centres undefined)
10	14%	-6%	-3.4%	COc1ccc(S(=O)(=O)N2CC3C4C=CC(C4)C3C2)cc1 (centres undefined)
0	-14%	-3%	-2.1%	O=C(NCc1ccccc1Cl)C1CCN(S(=O)(=O)c2ccc(F)cc2)CC1
-3	-6%	2%	2.7%	C=CCN1C(=O)C(C)NC1=S (centres undefined)
4	0%	-4%	-0.1%	CCC1(C)Cc2nc3[nH]c(=S)n(-c4ccc(C)cc4)c(=O)c3cc2CO1 (centres undefined)
2	0%	3%	-0.2%	CC(C)n1c(NCCO)nc2ccccc21
-3	-3%	-3%	0.7%	Cc1ccc(CNC(=O)CCCc2ccccc2)cc1
6	-9%	-59%	-0.2%	Cc1cn(CCC(=O)Nc2ccc(N3CCOCC3)cc2)c2ccccc12
.	7%	.	1.0%	O=C(OCC#CCSc1nnc(-c2cccc3ccccc23)o1)c1ccc(Cl)cc1
.	29%	.	0.5%	O=C(C[C@H]1C/C=C/CC[C@H](Cc2ccc(F)cc2)C(=O)O[C@H](c2ccccc2)CNC1=O)NCCO
-4	-26%	1%	-3.1%	COn1c(=O)c(=O)n(O)c2ccccc21
.	-17%	.	3.9%	CCOC(=O)C(Cc1ccnnc1)=NO
.	4%	0%	3.2%	COC(=O)C1CN(C(=O)C(C)Oc2ccccc2F)c2ccccc2O1 (centres undefined)
.	6%	8%	1.6%	CCC(=O)c1ccc(Oc2nc3c(c(=O)n(C)c(=O)n3C)n2CC)cc1
-1	6%	-4%	4.0%	O=C(CCC1COc2ccccc2O1)NCc1ccco1 (centres undefined)
4	-11%	-14%	9.0%	Cc1ccccc1N1C(=O)c2sc3nc4c(c(=O)n3c2C1=O)CCC4
.	-13%	.	9.5%	Cc1cc(C)cc(C(=O)Nc2cc3c4c(c2)CC(=O)N4CCC3)c1
-5	3%	0%	-1.1%	COc1ccccc1P(=O)(c1ccccc1)c1ccccc1NC(C)=O (centres undefined)
.	-6%	0%	-1.8%	O=C(Oc1cccc([N+](=O)[O-])c1)C1CCN(C(=O)c2ccc(F)cc2)CC1
-1	-5%	-18%	-1.0%	CCC(C)c1ccc(NC(=O)c2cccs2)cc1 (centres undefined)
.	-7%	-50%	1.1%	O=C(c1cc2cc(Br)ccc2o1)N1CCN(c2ccccc2)CC1
-4	2%	-6%	0.9%	Cn1nnnc1SCC(=O)NCCCc1ccccc1
.	24%	6%	1.1%	COc1ccc(NC(=O)CN2C(=O)NC(C)(c3ccccc3)C2=O)cc1Cl (centres undefined)
1	9%	1%	1.4%	O=C(NC1CCN(C(=S)NCc2ccco2)CC1)c1cccc(F)c1
-16	4%	0%	0.0%	C=CCn1c(SC)nnc1C1COc2ccccc2O1 (centres undefined)
.	8%	.	0.1%	COc1ccc(S(=O)(=O)N2CCOCC2)cc1NC(=O)CN1C(=O)NC(C)(C2CC2)C1=O (centres undefined)
.	4%	-1%	-3.8%	O=S1(=O)[C@H]2C[C@@H]3C=C[C@@]2(CN1Cc1cccc(Cl)c1)O3
.	-1%	-3%	1.4%	CC(=O)Nc1ccc(Nc2nc(C)cc(C)n2)cc1
.	1%	.	?	N#CC(=C(O)COC(=O)CCCNC(=O)c1ccc(Cl)cc1)c1nc2ccccc2[nH]1
.	-10%	-7%	1.4%	COc1ccc(C(NCC(=O)Nc2c(C)cccc2C)c2ccccc2)cc1 (centres undefined)
6	8%	23%	-0.5%	CCOC(=O)C(C(C)=O)C(c1ccc(OCCC(C)C)cc1)C(C(C)=O)C(=O)OCC (centres undefined)
-3	-17%	-1%	?	NC(=O)CSc1nc2scc(-c3ccco3)c2c(=O)n1-c1ccccc1
.	-7%	.	0.6%	O=C(Nc1nc(-c2ccccn2)cs1)c1cc(S(=O)(=O)N2CCOCC2)ccc1F
-7	0%	-32%	?	O=C(NCc1ccc2c(c1)OCO2)c1cc(-c2ccccc2Cl)on1
.	2%	.	-0.6%	O=C(COc1ccc(Br)cc1)OCC(=O)N1CCOCC1
.	-1%	-42%	0.5%	Cc1cccc(C)c1OCc1cc(C(=O)N2CCN(c3ccc(F)cc3)CC2)no1
2	-3%	-7%	2.9%	c1csc(Cn2nnnc2CN2CCN(c3nc4ccccc4s3)CC2)c1
-2	16%&-12%	2%	0.8%&4.1%	Cc1onc(-c2ccccc2)c1C(=O)N1CCCSC1=Nc1ccccc1
.	1%	.	0.3%	CN1CCN(S(=O)(=O)c2cccc(C(=O)N3CCN(c4ccccc4F)CC3)c2)CC1
.	12%	.	1.5%	CC(=O)c1cccc(NC(=O)CNC(=O)Cc2cccc3ccccc23)c1
.	-10%	.	-2.4%	Cc1cc(NC(=O)CSc2[nH]c(=O)cc(C(F)(F)F)c2C#N)no1
6	-10%	-10%	-6.2%	COCCNC(=O)C(c1ccc(C)o1)N(C(=O)c1snc(C(N)=O)c1N)c1cccc(C)c1 (centres undefined)
0	-10%	-21%	-1.3%	COc1ccc(-c2c(C)nn(-c3ccccc3)c2N)cc1OC
.	?	0%	?	CCCC(=O)Nc1nn(CC(C)C)c2nc3cc(C)ccc3cc12
.	0%	-5%	-1.1%	CC(NCc1cccs1)C(=O)Nc1cc(Cl)cc(Cl)c1 (centres undefined)
8	-4%	1%	1.4%	CCCN(C(=O)c1cn(CC)c2nc(C)ccc2c1=O)c1c(N)n(Cc2ccccc2)c(=O)[nH]c1=O
-7	5%	-27%	0.0%	CCCCOc1ncnc2c1[nH]c1ccc(C)cc12
-4	-6%	0%	-2.6%	NC1=C([N+](=O)[O-])C(c2ccccc2)C2=C(CCCC2=O)O1 (centres undefined)
12	2%	-9%	-0.8%	CC(=O)NCc1ccc(-c2csc(N)n2)s1

Some of these compounds in order of SMILES length, highest first.
GLA inh pH 4.5	Rango release inh	miR-21 reporter	Rango-impB inh	Molecule
8	-4%	1%	1.4%	CCCN(C(=O)c1cn(CC)c2nc(C)ccc2c1=O)c1c(N)n(Cc2ccccc2)c(=O)[nH]c1=O
6	-10%	-10%	-6.2%	COCCNC(=O)C(c1ccc(C)o1)N(C(=O)c1snc(C(N)=O)c1N)c1cccc(C)c1 (centres undefined)
.	-1%	-42%	0.5%	Cc1cccc(C)c1OCc1cc(C(=O)N2CCN(c3ccc(F)cc3)CC2)no1
.	-10%	.	-2.4%	Cc1cc(NC(=O)CSc2[nH]c(=O)cc(C(F)(F)F)c2C#N)no1
-4	-6%	0%	-2.6%	NC1=C([N+](=O)[O-])C(c2ccccc2)C2=C(CCCC2=O)O1 (centres undefined)
.	12%	.	1.5%	CC(=O)c1cccc(NC(=O)CNC(=O)Cc2cccc3ccccc23)c1
-7	0%	-32%	?	O=C(NCc1ccc2c(c1)OCO2)c1cc(-c2ccccc2Cl)on1
2	-3%	-7%	2.9%	c1csc(Cn2nnnc2CN2CCN(c3nc4ccccc4s3)CC2)c1
.	?	0%	?	CCCC(=O)Nc1nn(CC(C)C)c2nc3cc(C)ccc3cc12
0	-10%	-21%	-1.3%	COc1ccc(-c2c(C)nn(-c3ccccc3)c2N)cc1OC
.	0%	-5%	-1.1%	CC(NCc1cccs1)C(=O)Nc1cc(Cl)cc(Cl)c1 (centres undefined)
.	2%	.	-0.6%	O=C(COc1ccc(Br)cc1)OCC(=O)N1CCOCC1
12	2%	-9%	-0.8%	CC(=O)NCc1ccc(-c2csc(N)n2)s1

Carrying on.
GLA inh pH 4.5	Rango release inh	miR-21 reporter	Rango-impB inh	Molecule
.	-10%	.	7.6%	CC1(C)NC(=O)N(CCC(=O)Nc2cc(C(F)(F)F)ccc2Cl)C1=O
.	-18%	3%	-1.3%	CCc1c(C)nc2c(-c3ccccc3OC)c(C)[nH]n2c1=O
-3	8%	-6%	1.5%	CN(C(=O)CSC1=NCCS1)c1ccccc1
-6	16%	15%	1.2%	CN(Cc1ccccc1)c1ncnc2ccc(Br)cc12
.	25%	-13%	0.5%	Fc1ccc(Cn2nnc3ccccc32)cc1
8	.	-5%	.	Cn1c(=O)c2c(-c3cccc(F)c3)c3c(nc2n(C)c1=O)-c1ccccc1C3O (centres undefined)
?	?	.	?	COc1ccccc1[C@H]1C(c2cccc(C)c2)=NN(c2ccccc2)[C@@H]1CO
-2	?	20%	?	NC(=O)c1sc2nc3c(c(-c4ccco4)c2c1N)CCCC3
14	3%	1%	-0.9%	C=CCn1c(CSc2nc3ccccc3s2)nnc1SCC(=O)NCCN1CCOCC1
2	.	1%	.	CCCCCn1c2nc3ccccc3nc2c2c(=O)n(CC3CCCO3)c(C)nc21 (centres undefined)
2	2%	-9%	-0.1%	NS(=O)(=O)c1ccc(CCNc2nc(CN3CCOCC3)nc3sc4c(c23)CCC4)cc1
-1	4%	-4%	-0.7%	CCCN(C(=O)CSc1nnc(-c2ccoc2C)n1N)C1CCS(=O)(=O)C1 (centres undefined)
.	-10%	.	4.1%	Cc1ccc(C(=O)N/N=C/c2cccc3ccccc23)cn1
.	13%	2%	7.6%	C[C@@H](NC(=O)[C@@H]1Cc2ccccc2CN1)C(=O)NC1CCCC1
-6	-2%	-3%	?	COc1ccc(Cl)cc1C(=O)NCCN(C)C
.	-19%	.	2.3%	CN(C)S(=O)(=O)c1ccc(N2CCCC2)c(C(=O)NNC(=O)c2ccc(Br)cc2)c1
0	17%	-11%	4.2%	COCCNC(=O)c1cc2c(=O)n(C)c3ccccc3c2n1C
-21	0%	-29%	-0.1%	Cn1cc(C(=O)Nc2ccc(F)c(Cl)c2)cn1
0	-9%	-66%	0.1%	Nc1nc(Nc2ccc(Cl)cc2Cl)nc(C(F)(F)F)n1
.	2%	-21%	8.9%	Brc1cc2c(cc1CSc1ncccn1)OCO2
-4	-5%	-1%	-7.4%	CN1CCN(C(=O)C2=C[C@H](c3coc4ccccc4c3=O)C[C@H](OCCCCO)O2)CC1
.	-19%	-26%	?	Cc1cc(N(C)Cc2ccccc2)nc2cc(O)ccc12
1	-10%	-4%	-1.2%	CC(=O)c1cccc(CN2CCCC(CCC(=O)NCc3ccccc3F)C2)c1 (centres undefined)
.	1%	-59%	1.0%	CCOC(=O)c1sc(=NC(=O)c2c(F)cccc2F)n(C)c1C
.	-5%	.	0.0%	CS(=O)(=O)c1ccc(C(=O)NNC(=O)c2cc(-c3ccccc3)n[nH]2)cc1
-4	-1%	-5%	2.4%	CCN1C(=O)c2ccc(C(=O)Nc3nccs3)cc2C1=O
-26	-6%	23%	-4.1%	CC1CCC(C(C)C)C(OCC(O)CNC(C)c2ccccc2)C1 (centres undefined)
.	15%	0%	-5.5%	CC(C)C[C@@H](CC#N)N1CCN(CCc2ccccc2)CCC1=O
.	1%	.	0.3%	COc1ccccc1CNC(=O)COC(=O)CSc1ccc(Cl)cc1
.	-19%	.	?	CCN(C(=O)COC(=O)/C(C#N)=C/c1cc(C)n(CCOC)c1C)c1c(N)n(Cc2ccccc2)c(=O)[nH]c1=O
-1	11%	12%	0.1%	CC(C)(C)n1ncc(Oc2ccccc2[N+](=O)[O-])c(Cl)c1=O
-7	31%	-15%	-7.3%	O=C(NCc1cccc(Cl)c1)NCc1cccc(Cl)c1

An excerpt; count on the stated rates, not on these rows.
